# Assay outcomes from PubChem.
# Marburg entry inh: qHTS for inhibitors of binding or entry into cells for Marburg Virus; Potency, µM (series often up to 37.8 µM), without a hit: at the top dose activity change, negative = inhibition, actives largely listed as inhibitors; actives 1.8% (n = 300,000); AID 540276, 2011; Marburg virus pseudotyped entry inhibition, cell reporter; control for the full effect not named in the record; about a third of the inactives were read at about 46 µM; active = well fitted inhibition curve with a large enough effect; inconclusive = small, poorly fitted or top-dose-only effect, or effect the other way; inactive = flat fitted curve, though single readings scatter; tested in HEK293 cells; about a fifth of its hits are not listed in these tables; further: on the % scale 0 is the no-effect control and ±100 the full control effect; luciferase read-out
# RE007 growth inh: qHTS Assay for Inhibitors of the HIV-1 protein Vpr; S. pombe RE007 Vpr strain, BacTiter-Glo ATP luminescence, 24 h; control for the full effect not named in the record; Potency, µM (titrated, usually from 92.2 µM), without a hit: top-dose activity change, negative = less growth; actives 0.21% (n = 360,000); active = well fitted falling curve with a large enough effect; inconclusive = small, poorly fitted or top-dose-only effect; inactive = no such curve, though single readings can be large or run the other way;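 further: on the % scale 0 is the no-effect control and ±100 the full control effect; nearly all actives have a fitted effect of over 50% in size; the assay follows cell death caused by Vpr and the record does not say whether a fall means rescue or toxicity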
#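 Fission yeast strain RE007, carrying one chromosomally integrated HIV-1 vpr copy, was seeded at OD 0.01 in PMG+AL medium with 23 nL pinned compound. After 24 h at 30 °C and 99% humidity, viability was read by BacTiter-Glo luminescence.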
# SARS PLpro yeast: qHTS of Yeast-based Assay for SARS-CoV PLP. S. cerevisiae expressing SARS-CoV PLpro, growth rescue; control for the full effect not named in the record. Potency, µM (doses to about 32.9 µM), without a hit: at the top dose activity, positive = growth rescue. actives 0.19% (n = 330,000); active means well fitted rising curve with a large enough effect; inconclusive means small, poorly fitted or top-dose-only effect; inactive means no such curve, though single readings can be large or run the other way; further: 0% is about no effect; nearly all actives have a fitted effect of over 55% in size; growth read by luminescence after 48 h
# LASV entry inh: qHTS for Inhibitors of binding or entry into cells for Lassa Virus; Lassa virus pseudotype entry inhibition, cell reporter; control for the full effect not named in the record; Potency, µM (series often up to 37.9 µM), for inactives: at the highest dose activity change, negative = inhibition, hits mostly inhibitors; actives 1.2% (n = 300,000); AID 540256, 2011; active means well fitted inhibition curve with a large enough effect; inconclusive means small, poorly fitted or top-dose-only effect, or effect the other way; inactive means flat fitted curve, though single readings scatter; tested in HEK293 cells; further: on the % scale 0 is the no-effect control and ±100 the full control effect; nearly all actives have a fitted effect of over 50% in size; luciferase read-out
# Cruzain inh Det: qHTS Assay for Promiscuous and Specific Inhibitors of Cruzain (with detergent); Potency, µM, inactives show max response, negative = inhibition, most hits filed as inhibitors; Cruzipain (Trypanosoma cruzi), P25779; actives 0.43% (n = 200,000); purified cruzain, Z-FR-AMC fluorescence, 0.01% Triton; AID 1478, 2009;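 further: plate controls were neutral wells for no effect and buffer without enzyme for full effect; nearly all actives have a fitted effect of over 40% in size; top concentration of the series not given in the record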
# Target sequence (P25779 123-467 limits assumed): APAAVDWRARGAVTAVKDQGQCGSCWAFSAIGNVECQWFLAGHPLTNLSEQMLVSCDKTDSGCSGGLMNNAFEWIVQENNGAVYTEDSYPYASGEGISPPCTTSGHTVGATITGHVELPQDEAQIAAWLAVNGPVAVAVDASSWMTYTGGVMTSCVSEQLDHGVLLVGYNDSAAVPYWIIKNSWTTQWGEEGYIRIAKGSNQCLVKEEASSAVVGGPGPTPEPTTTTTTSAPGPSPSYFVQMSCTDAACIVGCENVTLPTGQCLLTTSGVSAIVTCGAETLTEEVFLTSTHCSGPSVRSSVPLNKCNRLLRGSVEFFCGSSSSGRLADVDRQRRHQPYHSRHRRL
#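 Read-out: AMC fluorescence (360 nm excitation, 450 nm emission), four reads over 2 min, first-to-third difference used. Conditions: cruzain 1.5 nM, Z-FR-AMC 2 uM, pH 5.5 acetate, 5 mM DTT, 0.01% Triton X-100.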
# Cruzain noTriton: qHTS Assay for Promiscuous and Specific Inhibitors of Cruzain (without detergent). Cruzipain (Trypanosoma cruzi), P25779. purified cruzain, Z-FR-AMC fluorescence, no detergent. Potency, µM, for inactives: max response, negative = inhibition, most hits filed as inhibitors. actives 2.3% (n = 200,000). AID 1476, 2009;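 further: plate controls were enzyme without inhibitor for no effect and buffer without enzyme for full effect; nearly all actives have a fitted effect of over 40% in size; top concentration of the series not given in the record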
#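 Purified cruzain at 1.5 nM, pre-incubated 15 min with compound at room temperature in 100 mM sodium acetate pH 5.5, 5 mM DTT, 0.00005% Triton X-100. Reaction started with 2 uM Z-FR-AMC; AMC fluorescence increase over 60 s gives rate.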
# 2A StopGo: High Throughput Screening for Foot and Mouth Disease Virus Antivirals | Potency, µM (top dose mostly 57.9 µM), without a hit: at the highest dose signal change, negative = less light | human cells with a luciferase reporter of 2A StopGo recoding; control for the full effect not named in the record | AID 1159524, 2015 | actives 1.2% (n = 410,000); active = well fitted falling curve with a large enough effect; inconclusive = small, poorly fitted or top-dose-only effect; inactive = no such curve, though single readings can be large or run the other way; tested in HEK293T cells; further: on the % scale 0 is the no-effect control and ±100 the full control effect; nearly all actives have a fitted effect of over 45% in size; luciferase light after 4 h
# NS1 function inh: qHTS Assay for Inhibitors of Influenza NS1 Protein Function; Potency, µM (doses to about 46.1 µM), without a hit: top-dose activity, positive = more growth; actives 0.4% (n = 270,000); S. cerevisiae slowed by influenza A NS1, growth recovery by OD600; AID 2326, 2010; active means well fitted rising curve with a large enough effect; inconclusive means small, poorly fitted or top-dose-only effect; inactive means no such curve, though single readings can be large or run the other way; further: nearly all actives have a fitted effect of over 50% in size
#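 Recovery from NS1-induced slow growth read by OD600 in budding yeast switched to galactose assay medium (pH 6.0, -URA) at 1:100 dilution. Compound 23 nl per well; the matching strain lacking NS1 serves as control.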
# Numbers without * were called inactive; ? = inconclusive; · = not tested or not shown; & = joins results of further samples; [ ] = remark or other dose. Unless noted, the call rests on the fitted dose curve; in most records, active means well fitted curve in the direction sought with a large enough effect; inconclusive means small, poorly fitted or top-dose-only effect, or another doubt; inactive means no such curve, though single readings can be large; an effect the other way counts as inactive or inconclusive. Potency means the concentration at half of the fitted maximal effect.
SMILES,Marburg entry inh,RE007 growth inh,SARS PLpro yeast,LASV entry inh,Cruzain inh Det,Cruzain noTriton,2A StopGo,NS1 function inh
COc1ccc(Cn2c(C(=O)O)c(CNC3CCCCCC3)c3ccc(OC)cc32)cc1,·,·,·,3%[46.1 µM],-4.6%,14%,-3%,·
CC(C)Cn1c(Br)nc2c1c(=O)n(CCC#N)c(=O)n2C,-10%,25%,9%,2%,4.1%,0%,-17%,7%
COc1cccc(NC(=S)N2CCN(S(=O)(=O)c3ccccc3)CC2)c1,-1%[46.1 µM],0%,-2%,-28%[46.1 µM],·,·,2%,7%
Cc1cc(NC(=O)c2cccc(C)c2[N+](=O)[O-])no1,-16%,15%,-5%,2%,·,·,15%,-3%
CCCCN(C(=O)CSCc1c(C)noc1C)c1c(N)n(CCC)c(=O)[nH]c1=O,-2%,4%,0%,-2%,·,·,-9%,4%
Cc1cc(NC(=O)c2ccc(C)c([N+](=O)[O-])c2)no1,-9%[46.1 µM],12%,2%,8%,·,·,23%,·
COc1ccc(-c2nn(-c3ccccc3)cc2/C=C/C(=O)OCC(=O)Nc2ccccc2C#N)cc1,?,31%,-1%,2%,·,·,-21%,11%
O=S(=O)(N/N=C/c1ccccc1F)c1ccccc1,25%[46.1 µM],-22%,-2%,-24%,·,·,68%[activator],·
CCc1ccc(CN2CCN(Cc3ccc(SC)cc3)CC2)cc1,?,6%,-7%,?,·,·,?,·
COc1cccc(C=NNc2ccc([N+](=O)[O-])cn2)c1OC,0%[46.1 µM],-4%,·,-6%[46.1 µM],·,·,32%[activator],·
Cc1ccc(NC(=O)C(C)C(=O)Nc2ccc(C)cc2)cc1,-13%[46.1 µM],-5%,-1%,16%,·,·,-55%,·
CC1CCN(c2cc(Br)c([N+](=O)[O-])cc2F)CC1,·,-10%,0%,·,·,·,-5%,-36%
COc1ccc(-c2nc(CS(=O)CC(=O)NC3CCCCCC3)c(C)o2)cc1 (stereo not given),-26%[46.1 µM],5%,-3%,0%[46.1 µM],·,·,33%[activator],21%
CN(Cc1ccco1)c1ncnc2ccc(-c3ccc4c(c3)OCO4)cc12,·,·,4%&-1%,·,-11%,-6%,-22%&-4%,·
CCOC(=O)c1sc(N(Cc2ccccc2)C(=O)CN2C(=O)CN(C)C2=O)nc1C,18%&18%,-4%,5%,?,-2.6%,?,-4%,-1%
Cc1ccc(CNC(=O)C2CCN(S(=O)(=O)c3cc(-c4noc(C)n4)ccc3C)CC2)cc1,·,·,·,-23%[46.1 µM],1.4%,2%,-19%,·
CC(=O)Nc1ccccc1C(=O)OCC(=O)c1ccc2ccccc2c1,8%,0%,1%,?,-9.7%,6%,?,?
COc1ccc(-c2nn(-c3ccccc3)cc2C(=O)NC(=S)Nc2cc(Cl)ccc2Cl)cc1,·,-1%,1%,·,·,·,-12%,0%
COc1ccc(NC(=O)COC(=O)c2cccc(S(=O)(=O)N(C)C)c2)cc1,?,11%,0%,21%[46.1 µM],·,·,-14%,·
COc1ccc(NC(=O)C(Br)C(C)C)cc1 (stereo not given),14%[46.1 µM],5%,-1%,·,·,·,25%,7%
CCOc1ccccc1Nc1nc2ccccc2nc1NS(=O)(=O)c1ccc(Cl)cc1,-20%[46.1 µM],·,·,-2%[46.1 µM],-0.4%,-1%,?,·
c1cc(C(c2nnnn2C2CCCC2)N2CCOCC2)ccn1 (stereo not given),6%,-3%,3%,5%,8.0%,-2%,·,-1%
O=C(O)CSc1c2c(nc3cc(C(=O)N4CCOCC4)ccc13)CCCC2,?,5%,-1%,-10%,-1.5%,?,-5%,5%
COc1ccc(C2(CN(C(C)=O)C(C)=O)CCCC2)cc1OC,-5%,5%,6%,9%,2.1%,-6%,0%,1%
COc1ccc(-c2cn3cccnc3n2)cc1F,?,-11%,-15%,?,-22%,20µM*,29%,-4%
COc1ccccc1NC(=O)CN1CCN(CC(=O)Nc2cc(C)ccc2OC)CC1,·,1%,2%,·,·,·,?,0%
Cc1cccc(C)c1NC(=O)c1csc2c1CCCC2,0%[46.1 µM],·,·,·,1.2%,-11%,-4%,·
COc1ccc(-c2nc3n(n2)C(c2ccc(O)cc2)C(C(=O)Nc2cccnc2)=C(C)N3)cc1OC (stereo not given),-14%[46.1 µM],·,·,16%[46.1 µM],-8.3%,-20%,8%,·
COc1ccc(CCNC(=O)c2nnn(CC(=O)Nc3ccccc3)c2N)cc1OC,1%[46.1 µM],-8%,3%,3%,5.7%,15%,-4%,?
COc1ccccc1NS(=O)(=O)c1cc(NC(=O)c2ccncc2)ccc1N1CCCC1,11µM*,-2%,1%,?,·,·,43%[activator],·
CC1CN(S(=O)(=O)c2cccc(C(=O)OCC(=O)Nc3ccc4c(c3)OCO4)c2)CC(C)O1 (stereo not given),-4%[46.1 µM],?,0%,2%,1.2%,6%,-5%,1%
C=CCNc1cnn(-c2ccccc2)c(=O)c1Cl,-22%,5%,0%,2%,·,·,37%[activator],-1%
Cc1cc(C)c2c(-n3cccc3)c(C(=O)NCCc3ccc(Cl)cc3)sc2n1,?,·,·,13%[46.1 µM],3.7%,22%,-29%,·
CCn1c(Cc2cccs2)nnc1SCC(=O)Nc1ccc(OC)c(OC)c1,-3%,10%,3%,-2%,8.8%,5%,-28%,1%
CC1(C)CCCN(C(=O)c2coc(=O)c(Br)c2)C1,-16%,-3%,-5%,7%,-16%,-15%,-6%,-110%
C/C(CCc1oc2ccccc2c1-c1ccc(C)o1)=N/O,?,-20%,-18%,-14%,-6.9%,-8%,-18%,-41%
CCn1cc(CN2CCCC(C(=O)Nc3cccc(-c4cc5ccccc5[nH]4)c3)C2)c(C)n1 (stereo not given),?,13%,-1%,?,·,·,-14%,17%
CN1CCCN(S(=O)(=O)c2cccc(Cl)c2Cl)CC1,?,9%,0%,26%[46.1 µM],·,·,-10%,·
CC(C)N=C(Nc1cccnc1)c1ccccc1,-3%[46.1 µM],1%,-1%,3%[46.1 µM],·,·,21%,2%
COc1cc(NC(=O)COc2ccccc2Cl)ccc1NC(=O)C(C)C,1%[46.1 µM],-19%,0%,10%[46.1 µM],·,·,12%,-1%
CC(C)(C)NCC(O)c1cc(Cl)c(N)c(Cl)c1 (stereo not given),-2%&-2%&-2%&-2%&-2%&-2%&-2%,-11%[18.4 µM],?,3%,-2.6%&-0.4%,-6%&16%,-12%&-2%,-2%
Cc1c(N=Cc2cc(Br)cc(Br)c2O)cccc1C(=O)O,?,?,-30%,-27%,-4.5%,11%,0%,-16%
CNC(=O)c1ccccc1NC(=O)C1CC(=O)N(C(C)C)C1 (stereo not given),1%,8%,2%,13%,·,·,-15%,9%
COc1cc2c(cc1OC)CN(C(=O)Nc1ccccc1)CC2,?,-7%,-2%,3%&4%[46.1 µM],-2.0%,-5%,16%&-10%,-13%
CCCCN1C2=C(C(=O)CCC2)C(c2ccc(Cl)c(Cl)c2)C2=C1c1ccccc1C2=O (stereo not given),?,25%,1%,2.3µM*,-2.0%,-21%,5%,11%
CCC(=O)Nc1ccc(C(=O)n2ccc(C)n2)cc1,6%,4%,10%,0%,2.8%,1%,-23%,-103%
OCCNCCCCSc1ccc(Cl)cc1,·,12%,-1%,·,·,·,-10%,-3%
COc1cc(NS(=O)(=O)c2ccc(NC(=S)NC(=O)C3CCCC3)cc2)nc(OC)n1,-2%,-1%,-6%,5%,-17%,-15%,121%[activator],13%
COCCCn1c(SCC(=O)OC2CCCCC2)nnc1-c1ccco1,9%,-23%,-7%,2%,1.6%,-9%,0%,-4%
COc1cc(-c2cc(C(=O)Nc3ccc(S(=O)(=O)NCc4ccco4)cc3)c3ccccc3n2)cc(OC)c1OC,?,-18%,2%,?,-8.6%,23%,?,21%
C=CCC1(NCc2ccco2)CCN(CC)CC1,-3%,15%,1%,0%,·,·,-20%,·
CCC(CC)C(=O)NCc1ccc(OC)cc1,?,3%,-1%,7%[46.1 µM],·,·,6%,·
CC(C)(C)c1ccc(C(=O)N/C(=C\c2cccs2)C(=O)N2CCOCC2)cc1,4%[46.1 µM],17%,0%,·,·,·,21%,9%
C=CCSc1nnc(NC(=O)c2cn(CC)c3nc(C)ccc3c2=O)s1,?,1%,-1%,8%,·,·,-7%,-3%
COc1cc(C)c(Cl)cc1S(=O)(=O)N(C)C,-1%[46.1 µM],2%,4%,0%,3.2%,-3%,3%,2%
Cc1ccc(NC(=O)c2cccs2)cc1NC(=O)c1ccccc1Cl,·,2%,-3%,·,·,·,9%,0%
CC(C)NS(=O)(=O)c1ccc(NC(=O)C2CCCCC2)cc1,1%,1%,-2%,-24%,-1.4%,5%,3%,-2%
COc1ccc(NC(=O)Cn2ncn3nc(-c4ccc(OC)cc4)cc3c2=O)cc1,-4%[46.1 µM],-3%,-1%,-19%[46.1 µM],·,·,-7%,-6%
CCCCn1c(N)c(N(CC(C)C)C(=O)c2ccc(S(=O)(=O)N3CCCCC3)cc2)c(=O)[nH]c1=O,-13%,2%,1%,3%,·,·,-21%,·
O=C(OCn1ncc(Cl)c(Cl)c1=O)c1ccc(C(F)(F)F)cc1,?,-9%,-24%,?,-4.5%,-7%,?,-48%
CC1CC(C)(C)NC(=S)N1CCC(=O)NCc1ccc(F)cc1 (stereo not given),1%,-1%,-5%,3%,·,·,-11%,-2%
COC(=O)c1[nH]c(C)c(/C(O)=C2\C(=O)C(=O)N(CCN(C)C)C2c2cc(OC)ccc2OC)c1C (stereo not given),13%,-2%,1%,0%,-4.0%,-8%,-13%,-11%
O=C(Nc1ccc(Br)cc1)C1C2C=CC3(O2)C1C(=O)N(CCN1CCOCC1)C3C(=O)NC1CCCCC1 (stereo not given),9%[46.1 µM],-2%,12%,-7%[46.1 µM],·,·,2%,-7%
